Ba CapD inh: CapD enzyme inhibition; purified CapD enzyme, fluorescence intensity read-out; hits give low values; some hits fall short of the stated cut; z-score (no concentration beside the values); actives 0.23% (n = 140,000); AID 492967;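 active = z-score under -4 in either of two replicates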;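 note: stock transfer was 100 nL into about 40 µL; score is relative to mean and spread of the plate; one replicate is shown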
AID504770: growth inhibitors of E. coli YBA685 in a screen for V. cholerae RctB (chromosome II replication) inhibitors; E. coli YBA685 rctB-dependent plasmid, OD600 growth, 3 h; hits give low values; z-score (no concentration beside the values); actives 0.27% (n = 130,000); AID 504770;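 active = z-score under -2 on both plates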;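 note: wells of about 30 µL received 100 nL stock; score is relative to mean and SD of the test wells; the first replicate is given; strong numbers were not always called active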
* = called active by the depositor; x = not tested or not shown. The list is partial (hit frequency here may not be typical).

Every second line gives: Ba CapD inh	AID504770
CC1=CC(C)=N[N+]1(C)CC(O)COc1ccccc1 (configuration not stated)
 : x	0.6
CC(C)N(Cc1ccccc1)S(=O)(=O)c1cccs1
 : -0.48	1.3
CSc1cc(-c2ccncc2)nc(-c2ccc(Cl)cc2)c1
 : -0.31	-0.9
Fc1ccc(N=Cc2cccnc2)cc1F
 : x	-0.05
COc1cc(CCNC(=O)c2cc(OC)cc(OC)c2)cc(OC)c1
 : -0.48	x
O=C1CC(N2CCN(c3ccc(O)cc3)CC2)C(=O)N1c1ccc(Cl)c(C(F)(F)F)c1 (configuration not stated)
 : x	-0.05
O=C(O)C1=Nc2cccc3cccc(c23)N1
 : -3.4	0.55
COc1ccc(C2C(C(N)=O)C2(C#N)C#N)cc1 (configuration not stated)
 : 8.9	-0.75
O=C1C=CC(=O)C(c2ccc(Cl)cc2)=C1
 : x	-0.1
Cc1ccc(N2C(=O)C3CN4CCCN4C3C2=O)cc1 (configuration not stated)
 : x	-0.65
Cc1ccc(N=C2C(=O)N(CN(C)C)c3ccccc32)cc1
 : -0.62	0.75
COc1cc(Cl)c(C(F)(F)F)cc1NC(=O)c1c(OC)cccc1OC
 : 0.24	-0.45
COc1ccc(CN(C)C(=O)c2cccc(F)c2)c(OC)c1OC
 : x	0.65
NC(CCO)c1cccc(C(F)(F)F)c1 (configuration not stated)
 : -0.5	2.3
COC(=O)CN(C(C)=O)C(c1ccccc1)c1cc(Br)ccc1NC(=O)c1ccccc1Cl (configuration not stated)
 : 0.13	0.95
COc1cc(C(=O)NC(c2ccccc2Cl)c2cc([N+](=O)[O-])c3cccnc3c2O)cc(OC)c1OC (configuration not stated)
 : -0.76	x
COc1cccc(C(=O)Cn2c(Br)nc3c2c(=O)n(C)c(=O)n3C)c1
 : 0.1	x
CCOC(=O)Nc1ccc2c(c1)N(C(=O)CN1CCOCC1)c1ccccc1CC2
 : x	-0.6
CCCOCCOC(=O)N1CCN(C(c2ccccc2)c2ccc(Cl)cc2)CC1 (configuration not stated)
 : -0.03	x
Cc1ccc(-c2nnc(-c3ccc(NC(=O)C(C)C)cc3)o2)cc1
 : 19	0.65
CCCCNC(=O)c1ccc2c(=O)n(C3CCCC3)c(=S)[nH]c2c1
 : 0.99	0.8
c1ccc2oc(C3=NNC(=NCCN4CCOCC4)SC3)cc2c1
 : x	-0.05
Nc1cc(N)nc(SCc2ccccc2C(F)(F)F)n1
 : x	-0.7
COc1ccc(OCc2cc(=O)n3nc(C)sc3n2)cc1
 : -0.21	2.1
NS(=O)(=O)c1ccc(CCNC(=O)CSc2nc(NC3CCCCC3)c3ccccc3n2)cc1
 : 2.7	x
C=CCn1c(COc2ccc(CC)cc2)nnc1SCC(=O)c1cc2ccccc2o1
 : x	-0.05
CS(=O)(=O)c1ccc2ccn(OCC(N)=O)c2c1
 : 24	x
COc1ccccc1OCCC(=O)O
 : -0.09	-0.55
CCOc1cc2[nH]c(=O)n(CCC(=O)NC3CCCC(C)C3C)c(=O)c2cc1OCC (configuration not stated)
 : 4.2	-1.5
Oc1ccccc1C=Nc1cccnc1
 : 10	1.2

(list continues)
Every second line gives: Ba CapD inh	AID504770
CCCCC(=O)Nc1noc2ccccc12
 : 0.45	-1.1
COc1ccc(C=Nc2n[nH]c(Nc3ccccc3)c2-c2nnc3n2CCCCC3)cc1
 : x	-1.2
N#Cc1cc2c(N)c(C(=O)Nc3ccc(S(N)(=O)=O)cc3)sc2nc1N
 : -0.02	x
CCc1nnc2sc(NC(=O)c3ccco3)nn12
 : -0.95	-1.4
COc1cccc(CNc2nn[nH]n2)c1OCc1ccc(Cl)cc1
 : x	0.4
O=C(CC1SC(=O)N(Cc2ccccc2)C1=O)Nc1nccs1 (configuration not stated)
 : x	0.15
CCOc1ccc(N2CCN(C(=O)c3ccc(-n4nc(C)c(CCC(=O)OC)c4C)cc3)CC2)cc1
 : -0.82	x
CC1=C(C(=O)OCCOc2ccccc2)C(c2ccc3c(c2)OCO3)NC(=O)N1C (configuration not stated)
 : -0.08	x
O=C(c1c(F)cccc1F)N1CCN(c2ccc3nnc(-c4ccccc4)n3n2)CC1
 : -0.39	0.05
Cc1ccc2nc(NC(C)C(=O)O)nc(-c3ccccc3)c2c1 (configuration not stated)
 : 6.2	1.8
Cc1ccc(C)n1-c1ccon1
 : x	0.55
CC(OC(=O)c1cccnc1)C(=O)Nc1cc(Cl)cc(Cl)c1 (configuration not stated)
 : -0.26	-1.1
N#Cc1c(NC(=O)COCc2cc(-c3ccco3)on2)sc2c1CCCC2
 : 0.24	0.6
CC(C)Cc1ccc(C(C)NC(C)CC(N)=O)cc1 (configuration not stated)
 : x	-0.4
Clc1ccc(-c2csc3ncnc(Cl)c23)cc1
 : 0.67	0.8
CS(=O)(=O)c1ccc(NC(=O)c2cc(F)c(F)cc2Cl)cc1C#N
 : -0.5	x
O=C(O/N=C1\CCCc2[nH]c3ccccc3c21)c1c(Cl)cccc1Cl
 : 0.025	x
O=C1NC(=Nc2ccc(Cl)cc2)SC1Cc1cccc2ccccc12 (configuration not stated)
 : -0.7	x
CC12CN3CC(C)(CN(C1)C31C(=O)Nc3ccccc31)C2=O (configuration not stated)
 : -0.075	x
COc1cc(CO)cc(Br)c1OCc1cccnc1
 : 0.25	-0.25
O=S(=O)(c1ccc2nc(-c3cccs3)c(-c3cccs3)nc2c1)N1CCOCC1
 : x	-1.7
CCOc1ccc(CCN2CNc3c(-c4cccc(Cl)c4)c(C)nn3C2)cc1
 : -0.38	-1
CC12CC(C(C#N)=C(N)N1)c1ccccc1O2 (configuration not stated)
 : x	2.1
COc1nc(N2CCCC2)[nH]c(=O)n1
 : -0.08	-0.7
Cc1ccc(C)c(NC(=O)c2cc(S(=O)(=O)N3CCN(c4ccccc4)CC3)ccc2F)c1
 : -0.59	x
CCCCc1ccc(NC(=O)CSc2nc(C3CCCCC3)c(C#N)c(=O)[nH]2)c(C)c1
 : -0.1	-0.05
COc1ccc(NC(=O)C2(N(C)C(=O)c3ccc(-n4cnnn4)cc3)CCCCC2)cc1
 : 0.99	1.1
COc1cccc(-c2cc(C(=O)N3CCN(C(=O)c4cc(OC)c(OC)c(OC)c4)CC3)[nH]n2)c1
 : -0.55	1.1
COc1cccc(NC(=O)c2ccc(-c3cccc(Cl)c3C)o2)c1
 : 63	-0.05
COc1ccccc1/C=N/NC(=O)CNc1ccccc1OC
 : -0.71	-0.6

The list continues:
compound | Ba CapD inh | AID504770
S=c1nc(-c2ccccc2)[nH]n1CN1CCc2ccccc2C1 | x | 1.9
Cc1sc2nc[nH]c(=O)c2c1-c1ccccc1 | -0.82 | 2.2
Nc1nc(CSCC(=O)NCc2ccco2)nc(Nc2ccccc2)n1 | x | 0.05
Cc1cc(C(=O)Cn2cnc3sccc3c2=O)c(C)n1CCc1ccc(Cl)cc1 | x | -0.3
CCOc1ccccc1C1CC(=O)NC2=C1C(=O)CCC2 (configuration not stated) | -0.53 | 1.6
O=C(Cc1ccsc1)OCC(=O)c1ccccc1 | 0.45 | -0.35
COc1ccc2cc(-c3ccn[nH]3)ccc2c1 | 12 | x
CCCCCC#CCCOC(=O)NC(C)C(=O)OCc1ccc([N+](=O)[O-])cc1 (configuration not stated) | -0.69 | x
CCc1ccc(-c2nc(CN3CCC(C(=O)NC(C)C)CC3)c(C)o2)cc1 | 3.3 | -1.4
CC1(C)Cc2c(c(=S)nc(-c3ccccc3)n2CCO)CO1 | -5.1* | 2.2
CC1(C)CC(=O)c2sc(NC(=O)C3CC3)nc2C1 | 0.57 | x
O=C(Nc1cc(C(=O)N2CC=C(c3ccccc3)CC2)ccc1N1CC2CC(C1)c1cccc(=O)n1C2)c1cccs1 (configuration not stated) | 0.065 | x

The closing 5 entries of the part before open the next one.
compound | Ba CapD inh | AID504770
CCCCCC#CCCOC(=O)NC(C)C(=O)OCc1ccc([N+](=O)[O-])cc1 (configuration not stated) | -0.69 | x
CCc1ccc(-c2nc(CN3CCC(C(=O)NC(C)C)CC3)c(C)o2)cc1 | 3.3 | -1.4
CC1(C)Cc2c(c(=S)nc(-c3ccccc3)n2CCO)CO1 | -5.1* | 2.2
CC1(C)CC(=O)c2sc(NC(=O)C3CC3)nc2C1 | 0.57 | x
O=C(Nc1cc(C(=O)N2CC=C(c3ccccc3)CC2)ccc1N1CC2CC(C1)c1cccc(=O)n1C2)c1cccs1 (configuration not stated) | 0.065 | x
COc1ccc(C(=O)NC(C)C(c2cccs2)N2CCN(C)CC2)cc1OC (configuration not stated) | 0.21 | 0.55
CS(=O)(=O)c1cc(C#N)c(N2CCN(C(=O)Nc3cccc(C(F)(F)F)c3)CC2)nc1-c1ccccc1 | 0.5 | x
O=C(CNC(=O)c1cccs1)NC1CCCC1 | x | 0.55
O=C(Nc1ccccc1)OCc1cncs1 | 0.07 | 0.4
CN(C)S(=O)(=O)c1cccc(CSc2nnc(C(F)(F)F)n2C)c1 | x | -0.85
COc1ccc(C2CC(=O)C3=C(C2)NC(C)=C(C#N)C3c2cc(OC)c(OC)cc2Br)cc1 (configuration not stated) | 1.5 | x
CCN(CC)c1cccc(C(=O)O)n1 | -0.95 | -0.55
OCc1cccn1-c1ccc(I)cc1 | 0.055 | 0.35
O=S(=O)(c1ccc2c(c1)OCO2)N1CCOCC1 | -1.3 | 2.8
Cc1onc(-c2c(Cl)cccc2Cl)c1C(=O)SC1=NC(C)N2C(SC(=O)c3c(-c4c(Cl)cccc4Cl)noc3C)=NC(C)N12 (configuration not stated) | 0.21 | x
Cc1ccc(C(=O)NC(C)C(C)(C)C)o1 (configuration not stated) | 0.39 | 0.9
Clc1ccc(-c2cc3ccccn3c2)cc1 | 11 | -0.55

(more compounds)
compound | Ba CapD inh | AID504770
CN(C)c1c[nH]c(=O)[nH]c1=O | -1.5 | -0.55
COc1ccc(CN=C(C)C2CCOC2=O)cc1 (configuration not stated) | 0.2 | -0.2
Cc1ccc2nc(NCCC(=O)O)nc(-c3ccccc3)c2c1 | -0.28 | -0.65
Brc1ccccc1[C@@H]1Nc2ccccc2[C@@H]2C=CC[C@@H]21 | -0.46 | -0.75
Cc1cc(Nc2ccc(F)cc2)nc(SCc2c(Cl)cccc2Cl)n1 | -0.93 | 2.7
CCC1(C)C(C#N)(C#N)C1(C#N)C#N | 0.3 | -2
O=C(O)c1cc(-c2cccc(O)c2)c2c(-c3ccccc3)[nH]nc2n1 | 1.2 | -0.55
CN(C)C(Cc1cccc(S(=O)(=O)N2CCOCC2)c1)C(=O)c1ccccc1 (configuration not stated) | x | 0.15
Brc1ccc(-c2cnc(/C=C/C=C/N3CCOCC3)s2)cc1 | 8.1 | 1.6
Cc1cc(C)c(Cn2ncn(-c3ccc(Br)cc3)c2=O)c(C)c1 | -0.14 | x
CCCCc1ccc(COC(=O)NCCc2c[nH]c3ccc(O)cc23)cc1 | -0.41 | x
O/N=C\c1ccccc1Oc1ccc(Cl)c(F)c1 | 0.65 | -0.3

(list continues)
compound | Ba CapD inh | AID504770
OCC1CC2CCCC[N+]2(Cc2ccccc2)O1 (configuration not stated) | -0.18 | 0.05
O=C(c1ccccc1)c1cc2ccccc2oc1=O | 0.19 | -0.6
COc1cccc2c1Oc1nc(-c3ccccc3)nc(SC(F)F)c1C2 | 0.42 | 1.1
CC1CCCC(NC(=O)c2ccccc2)C1C (configuration not stated) | x | -0.7
CCOCCn1cnc2sc(C(=O)NCCCOC)c(C)c2c1=O | 5.9 | x
O=C(c1ccc(S(=O)(=O)N2CCc3ccccc3C2)cc1)N1CCOCC1 | -0.15 | 1.5
CCn1c(SCCCF)nnc1-c1cc2cc3ccccc3nc2s1 | 18 | x
OC(COc1ccccc1)CN1CCC(c2nnc(-c3ccccc3)o2)CC1 (configuration not stated) | -0.16 | x
CN(C)c1ccc(N=Cc2nc(-c3ccccc3)oc2OC(=O)c2ccccc2)cc1 | x | -1.1
COc1ccc(-c2noc(CC(=O)N3CCC(C)CC3)n2)cc1 | 0.86 | 0.9
CCN(C(=O)c1cn(CC)c(=O)c2cc(OC)c(OC)cc12)c1cc(C)ccc1C | 1.7 | 0.1
CCOC(=O)C1=C(CN2CCCc3ccccc32)NC(=O)NC1c1ccccc1 (configuration not stated) | -0.17 | 1

Random excerpt: 5 entries already listed.
compound | Ba CapD inh | AID504770
CCOCCn1cnc2sc(C(=O)NCCCOC)c(C)c2c1=O | 5.9 | x
CC1CCCC(NC(=O)c2ccccc2)C1C (configuration not stated) | x | -0.7
CCOC(=O)C1=C(CN2CCCc3ccccc32)NC(=O)NC1c1ccccc1 (configuration not stated) | -0.17 | 1
COc1cccc2c1Oc1nc(-c3ccccc3)nc(SC(F)F)c1C2 | 0.42 | 1.1
OCC1CC2CCCC[N+]2(Cc2ccccc2)O1 (configuration not stated) | -0.18 | 0.05

Later entries.
compound | Ba CapD inh | AID504770
CSc1nc(C)cc(ON=C(C)C)n1 | 0.38 | 0.05
CCc1cccc(NC(=O)CCS(=O)(=O)c2cccc3nonc23)c1 | 0.28 | 0
CCCCn1c(=NC(C)=O)c(C#N)cc2c(=O)n3cccc(C)c3nc21 | x | -0.35
OCCn1c(SCCOc2ccccc2)nc2ccccc21 | 0.005 | -0.55
O=C(CCN1C(=O)c2ccccc2S1(=O)=O)Nc1ccc2c3c(cccc13)CC2 | 0.055 | 1
CO/N=C/c1c(-c2ccccc2)nn(C)c1Sc1ccccc1C(=O)OC | 0.49 | x
Oc1c(CN2CCCC2)cc(Cl)c2cccnc12 | -0.25 | 0
COc1ccc(-c2nc(OC)cc(OC)n2)cn1 | -0.45 | x
C/C(=C/c1ccccc1)C(=O)N1CC(C)OC(C)C1 (configuration not stated) | -0.29 | 0.85
c1ccc(CNCC2CCCO2)cc1 (configuration not stated) | -0.07 | 0.2

Record cards (already shown).
Oc1c(CN2CCCC2)cc(Cl)c2cccnc12 as listed: Ba CapD inh = -0.25; AID504770 = 0
CC(C)N(Cc1ccccc1)S(=O)(=O)c1cccs1 as listed: Ba CapD inh = -0.48; AID504770 = 1.3

Compound activity (PubChem BioAssay)
